Prx2 Sm inh = Schistosoma mansoni Prx2 inhibition | S. mansoni Prx2 activity coupled to TGR/GSH (TGR is thioredoxin glutathione reductase), NADPH fluorescence loss, qHTS; some inactives read as strong as hits | Potency, µM | 0.07% of 65,000 active | AID 448; active means full or partial inhibition curve with a strong effect at the top dose; inconclusive means weaker partial or single-point curve; inactive means no accepted curve; also: series up to 57 µM; many of its hits are not listed in these tables
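Activity is read as the drop in NADPH fluorescence (365/450 nm), recorded every 30 sec for 8 min after H2O2 addition. Prx2 is coupled to TGR-driven NADPH oxidation through glutathione, in phosphate buffer pH 7.4.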
Anthrax LT inh = inhibitors of anthrax lethal toxin internalization. 0.67% of 70,000 active. Cells, anthrax lethal toxin internalization, FRET ratio (460/530). Potency, µM (doses to about 40 µM), for the others: top-dose activity change, negative = inhibition, usual class: inhibitors. AID 912; active = well fitted falling ratio curve with the 530 nm signal flat; inconclusive = other ratio curves, or a change in one channel alone; inactive = flat curves in the ratio and both channels; the % refers to the ratio; also: % is scaled to controls: 0 for no effect and ±100 for the full control effect; nearly all actives have a fitted effect of over 50% in size; tested in ME-180 cells; beta-lactamase reporter
Starred values were filed as active, the others as inactive; ? = inconclusive; nt = not tested or not shown; & = joins results of further samples; [ ] = another dose, or the depositor's remark. Potency is read from the fitted curve at half-maximal effect. Not all compounds are listed; the hit share may differ from the screen's.

The first 17 compounds (preview)
SMILES | Prx2 Sm inh | Anthrax LT inh
Cc1ccc(C)c(OCC(=O)Nc2ccc3c(c2)OCO3)c1C | >57 | ?
COC(=O)Nc1nc2c(C)cccc2s1 | >57 | 8%
COCCn1nnnc1C(C(C)C)N(Cc1ccccc1)Cc1cc2cc(OC)ccc2[nH]c1=O (configuration not stated) | >57 | 4%
COc1ccc(OC)c(NC(=O)CSc2nc3c(c(=O)n(C)c(=O)n3C)n2C)c1 | >57 | 3%
Cc1ccc(C(=O)C2=C(O)C(=O)N(CCN(C)C)C2c2ccccn2)o1 (configuration not stated) | >57 | -26%
O=C(c1ccc(Cn2c(=O)[nH]c3ccccc3c2=O)cc1)N1CCN(c2ccc(F)cc2)CC1 | >57 | ?
O=C(O)C(CC(=O)N1CCOCC1)NCc1ccccc1 (configuration not stated) | >57 | nt
OC(CN1CCOCC1)C12CC3CC(CC(C3)C1)C2 (configuration not stated) | >57 | nt
Clc1ccc(OCc2nc(-c3ccccn3)no2)c(Br)c1 | >57 | 1%
Cc1c(NC(=O)c2ccco2)cccc1-c1nc2cccnc2s1 | >57 | -16%
CCN(CC)CCOc1ncnc2c1oc1ccccc12 | >57 | ?
Cc1nc(C)c(C(=O)Nc2cccc(C)c2C)o1 | >57 | -2%
CCOc1ccc(NC(=O)CSc2nnc(Cn3c(=O)sc4ccccc43)n2C)cc1 | >57 | -4%
O=C(Nc1nccs1)NC1CCCCC1 | >57 | ?
O=C1CCCCCN1Cc1nnc(SCc2nc3ccccc3s2)n1-c1ccccn1 | >57 | 4%
CCC(COC(=O)Nc1cccc(C)c1C)NC(=O)OCC(C)C (configuration not stated) | >57 | -3%
COc1ccccc1-c1nc(Nc2ccncc2)c2ccccc2n1 | ? | -4%

All compounds of this part (from the top)
SMILES | Prx2 Sm inh | Anthrax LT inh
Cc1ccc(C)c(OCC(=O)Nc2ccc3c(c2)OCO3)c1C | >57 | ?
COC(=O)Nc1nc2c(C)cccc2s1 | >57 | 8%
COCCn1nnnc1C(C(C)C)N(Cc1ccccc1)Cc1cc2cc(OC)ccc2[nH]c1=O (configuration not stated) | >57 | 4%
COc1ccc(OC)c(NC(=O)CSc2nc3c(c(=O)n(C)c(=O)n3C)n2C)c1 | >57 | 3%
Cc1ccc(C(=O)C2=C(O)C(=O)N(CCN(C)C)C2c2ccccn2)o1 (configuration not stated) | >57 | -26%
O=C(c1ccc(Cn2c(=O)[nH]c3ccccc3c2=O)cc1)N1CCN(c2ccc(F)cc2)CC1 | >57 | ?
O=C(O)C(CC(=O)N1CCOCC1)NCc1ccccc1 (configuration not stated) | >57 | nt
OC(CN1CCOCC1)C12CC3CC(CC(C3)C1)C2 (configuration not stated) | >57 | nt
Clc1ccc(OCc2nc(-c3ccccn3)no2)c(Br)c1 | >57 | 1%
Cc1c(NC(=O)c2ccco2)cccc1-c1nc2cccnc2s1 | >57 | -16%
CCN(CC)CCOc1ncnc2c1oc1ccccc12 | >57 | ?
Cc1nc(C)c(C(=O)Nc2cccc(C)c2C)o1 | >57 | -2%
CCOc1ccc(NC(=O)CSc2nnc(Cn3c(=O)sc4ccccc43)n2C)cc1 | >57 | -4%
O=C(Nc1nccs1)NC1CCCCC1 | >57 | ?
O=C1CCCCCN1Cc1nnc(SCc2nc3ccccc3s2)n1-c1ccccn1 | >57 | 4%
CCC(COC(=O)Nc1cccc(C)c1C)NC(=O)OCC(C)C (configuration not stated) | >57 | -3%
COc1ccccc1-c1nc(Nc2ccncc2)c2ccccc2n1 | ? | -4%
COCCCNC(=O)CSc1nc2ccc(N3CCOCC3)cc2c(=O)n1CCc1ccccc1 | >57 | ?
O=C(O)Cn1c(C(F)(F)F)nc2ccccc21 | >57 | -13%
CC(C)(O)/C=C\C(=O)[C@](C)(O)[C@H]1[C@H](O)C[C@]2(C)[C@@H]3CC=C4[C@@H](C=C(O)C(=O)C4(C)C)[C@]3(C)C(=O)C[C@@]12C | >57 | 0.032µM*
O=C(Nc1ccccc1)c1ccccc1O | >57 | -13%
CC(C)c1ccc(NC(=O)C2CCCN(S(=O)(=O)c3cnc[nH]3)C2)cc1 (configuration not stated) | >57 | -8%
CCNc1nc(NCC)nc(N(C)n2cnnc2)n1 | >57 | 0%
Clc1ccc(-c2nc(-c3ccccn3)no2)cc1Cl | nt | ?
CC(=O)NC(Cc1ccccc1)C(=O)NC1CCN(C(=O)c2cnccn2)CC1 (configuration not stated) | >57 | nt
Fc1cccc(Nc2cc(-n3cccn3)ncn2)c1 | >57 | -1%
C=CCn1c(SCC(=O)Nc2nnc(CC)s2)nnc1-c1ccco1 | >57 | 18%
O=C1[C@H]2[C@H]3[C@H](O)[C@H](O)C/C(=N/OCc4ccccc4)[C@@H]3CC[C@@H]2C(=O)N1C[C@@H]1CCCO1 | nt | -3%[8 µM]
CCOc1cc(CN2CCN(c3ccc(C(C)=O)cc3)CC2)ccc1OC | >57 | -9%
CCOc1ccccc1OCC(=O)Nc1ccc(S(=O)(=O)N(C)C)cc1 | >57 | 5%
CCOC(=O)Nc1ccc2c(c1)N(C(=O)N(CC)CC)c1ccccc1CC2 | nt | -45%
COc1ccc2oc(C(=O)c3ccccc3)c(NC(=O)CN3CCN(C)CC3)c2c1 | >57 | ?
COc1ccc(C(=O)Nc2ccc3c(c2)nc2n3CCSC2)cc1 | >57 | -4%
COc1ccccc1OCc1ccc(C(=O)n2nc(C)c(Cl)c2C)o1 | >57 | -16%
CCC(=Nc1ccc(Cc2ccncc2)cc1)c1c(O)n(C)c(=O)n(C)c1=O | >57 | 16%
CC(=O)N1CCc2cc(S(=O)(=O)NCCC(=O)N3CCc4ccccc4C3)ccc21 | >57 | nt
O=C(Nc1ccc2c(c1)OCO2)C1CCN(C(=O)c2cccs2)CC1 | >57 | 8%
CCCOc1ccc(C2c3c(oc4ccccc4c3=O)C(=O)N2CCCN2CCOCC2)cc1 (configuration not stated) | >57 | -1%
Cc1nnc2ccc(N3CCCC3)nn12 | >57 | 3%
CCOC(=O)/C(C(N)=NC)=C(\O)c1ccccc1 | >57 | 4%
COc1ccc(OC)c(-c2cc(C(=O)Nc3c(C)nn(Cc4ccccc4)c3C)no2)c1 | >57 | ?
CCCn1nc(-c2ccccc2)c2nc3ccccc3nc21 | >57 | ?
COc1ccc(OC)c(C2=NOC(C(=O)Nc3cc(C)nn3-c3ccccc3)C2)c1 (configuration not stated) | >57 | -12%
CCc1ccc2[nH]c(=O)c(CN(CCN(CC)CC)C(=O)NC3CCCCC3)cc2c1 | >57 | -4%
O=C(Nc1ccc2c(c1)OCO2)C(c1ccccc1)N1CCCCC1 (configuration not stated) | >57 | -5%
O=C1Nc2ccccc2N=C(c2ccccc2)C1N1CCOCC1 (configuration not stated) | >57 | 5%
CN(CC(=O)Nc1ccncc1)S(=O)(=O)c1ccccc1 | >57 | -19%
CCOc1cccc2cc(C(=O)N3CCc4ccccc4C3)c(=O)oc12 | >57 | 3%
Cc1ccccc1C(=O)NC1CCN(Cc2nnnn2CCc2ccccc2)CC1 | >57 | 9%
CCOc1ccc(-c2[nH]nc3c2C(c2ccc(O)cc2)C(C#N)=C(N)O3)cc1 (configuration not stated) | >57 | nt
COc1ccc(C/C(N)=N/n2cnnc2)cc1 | nt | -10%
COc1ccccc1Oc1coc2cc(O)ccc2c1=O | >57 | 2%
CCC(=O)Nc1c2c(nn1-c1ccc(C)cc1C)CSC2 | >57 | 5%
CCN(Cc1ccccc1)Cc1c(F)cccc1F | nt | 5%
COc1cccc(NC(=O)c2oc3ccccc3c2NC(=O)C2CC2)c1 | >57 | ?
COC(=O)c1ccc(NC(=O)CSc2nnc(COc3ccccc3)n2C)cc1 | >57 | 12%
O=c1c2c3c(sc2n2cnnc2n1CCc1ccccc1)CCCC3 | >57 | -1%
COC(=O)c1ccc(C(NC(=O)OCc2ccccc2)/C(F)=C/[C@@H](C)C(=O)N[C@@H](CO)Cc2ccccc2)cc1 (some centres not stated) | nt | -21%
CCCCc1nc2c(c3c1CC(C)OC3)CN(CCOc1ccccc1)CC2 (configuration not stated) | nt | -4%[8 µM]
COCC(C)NC(=O)NC1(C(F)(F)F)Oc2ccc(Cl)cc2O1 (configuration not stated) | >57 | 16%

New compounds follow
SMILES | Prx2 Sm inh | Anthrax LT inh
CCc1nc2oc3cc(OC)ccc3c(=O)c2c(=O)n1Cc1ccco1 | >57 | 0%
O=S(=O)(c1cccc2nsnc12)N1CCOCC1 | >57 | -3%
Oc1c(Br)cc(Br)cc1CN(Cc1cc(Br)cc(Br)c1O)C1CCCCC1 | >57 | ?
CCCOc1ccc(/C(O)=C2/C(=O)C(=O)N(CCN(C)C)C2c2ccco2)cc1 (configuration not stated) | nt | 4%
CC(C)(O)C(=O)O | nt | -2%
COc1ccc(OC)c(S(=O)(=O)N2c3ccccc3CC2C)c1 (configuration not stated) | >57 | -3%
Cc1ccc(-n2c(C)cc(C)c(C#N)c2=O)cc1 | >57 | 1%
O=C(CS(=O)(=O)c1c[nH]c2ccccc12)N1CCCCC1 | >57 | -1%
CCn1c(C(=O)N2CCC(C(=O)NCc3cccs3)CC2)cc2sccc21 | >57 | -26%
CC(c1ccccc1)N1CC(C(=O)N2CCN(c3ccccc3)CC2)CC1=O (configuration not stated) | >57 | 8%
CCCOC(=O)c1cc(=O)[nH]c2ccccc12 | >57&>57 | ?
O=C(O)c1cccnc1SC1CC(=O)N(Cc2ccccc2)C1=O (configuration not stated) | >57 | 9%
Cc1ccc(C(=O)CSc2nnc(-c3ccccc3N)n2C)cc1 | >57 | 0%
CCCCOc1ccc(C(=O)CCNC(C(=O)O)C(C)CC)cc1 (configuration not stated) | >57 | -19%
CC(=O)c1cc2c(cc1NC(=O)CCCC(=O)O)OCO2 | >57 | 13%
O=S(=O)(c1ccc(SCCO)nc1)N1CCCC1 | >57 | -1%
CCC(=O)OCCn1c(Br)nc2c1c(=O)[nH]c(=O)n2C | >57 | ?
CCC(=O)N1CCN(c2nc(-c3ccccc3)c3c(c2C#N)CCCC3)CC1 | nt | ?
CC(=O)N1CCC2(CC1)CC(=O)c1cc(OCC(=O)NCc3ccco3)ccc1O2 | >57 | -2%
NC=O | nt | 4%
O=c1cc(CSc2ccc(Cl)cc2)nc(N2CCCCC2)[nH]1 | >57 | 7%
CS(=O)(=O)N(CC(=O)NCc1ccco1)c1ccc2c(c1)OCO2 | >57 | 7%
Cc1nnc(NC(=O)CCCN2C(=O)c3ccccc3C2=O)s1 | >57 | 2%
CCNC(=O)CC1C(=O)N(c2ccccc2)C(=O)N1CCC(C)C (configuration not stated) | >57 | 5%
CC(C)C(=O)Nc1cccc(C(=O)Nc2nncs2)c1 | >57 | -13%
c1ccc2c(c1)C(=Nn1cnnc1)c1ccccc1-2 | >57 | 9%
CN(C)CCOC(=O)CCc1ccccc1 | >57 | 6%
c1ccc(C2CC(c3ccccc3)n3ncnc3N2)cc1 (configuration not stated) | >57 | 7%
Cc1ccc(S(=O)(=O)N(C)Cc2nc(-c3ccc(Br)cc3)no2)cc1 | >57 | ?
CCN(CC)CC(=O)Nc1ccc(-c2nc3cc(NC(=O)CN(CC)CC)ccc3o2)cc1 | >57 | ?
CCOC(=O)N1CCC(NC(=O)C2CCCN(S(=O)(=O)c3cccc4nsnc34)C2)CC1 (configuration not stated) | >57 | 2%
O=C1c2[nH]nc(-c3ccccc3O)c2C(c2ccccc2F)N1Cc1ccco1 (configuration not stated) | >57 | ?
CC(=O)NC1C(=O)SC1(C)C (configuration not stated) | >57 | 1%
CNc1ncncc1-c1ccccc1C | >57 | 6%
CCNc1nc(NCc2ccccc2)nc(Oc2ccc(=O)[nH]n2)n1 | >57 | -2%
CCN1C(=O)/C(=C2\SC(N3CCCCC3)=NC2=O)c2ccccc21 | >57 | ?
COc1cc(SC)ccc1C(=O)NCC1CCCO1 (configuration not stated) | >57 | -4%
Cc1ccc2c(c1)nnn2C1CCN(CC(=O)Nc2ccc3c(c2)OCCO3)CC1 | >57 | 6%
CC(=NCc1ccc(F)cc1)c1c(O)n(C)c(=O)n(C)c1=O | >57 | 4%
Cc1cccc(C)c1NC(=O)c1ccc(-n2cnnn2)cc1 | >57 | 8%
COc1ccc(-c2nc3cnc(OC)nc3n(C3CC3)c2=O)cc1 | >57 | -10%
CCOC(=O)CNC(=O)C(Cc1ccccc1)NS(=O)(=O)c1cccs1 (configuration not stated) | >57 | ?
Cc1cc(C)nc(N2C(=O)CC(C(C)c3ccccc3)C2=O)n1 (configuration not stated) | >57 | -6%
Cc1cc(C2(c3cc(C)c(O)cc3C)OS(=O)(=O)c3ccccc32)c(C)cc1O | nt | ?
CCS(=O)(=O)N1CCC(c2nc(-c3ccc(C(F)(F)F)cc3)no2)CC1 | >57 | -4%
CC1CCCCN1C(=O)C1CC(c2ccc(F)cc2)=NO1 (configuration not stated) | >57 | 7%
O=C(c1c(F)c(F)c(F)c(F)c1F)N1CCc2ccccc21 | >57 | -13%
Cn1cnnc1SCc1ccc(-c2ccc(Br)cc2)o1 | >57 | -7%
CCCc1cc2c(n1CCc1ccc(Cl)cc1)C(C)C1CN(C(=O)c3ccccc3)C(C)(C(=O)OC)C21 (configuration not stated) | >57 | -9%
CC(CN1CCCCC1)OC(=O)c1ccc(Cl)cc1Cl (configuration not stated) | >57 | ?
O=C(c1ccco1)N1CCN(C(=O)c2ccccc2OC(=O)C23CC4CC(CC(C4)C2)C3)CC1 | >57 | 0%

Single records, from the list above. Values in the order: Prx2 Sm inh | Anthrax LT inh
Shown for `CCCc1cc2c(n1CCc1ccc(Cl)cc1)C(C)C1CN(C(=O)c3ccccc3)C(C)(C(=O)OC)C21` (configuration not stated) : >57 | -9%
Shown for `O=C(c1c(F)c(F)c(F)c(F)c1F)N1CCc2ccccc21` : >57 | -13%
